# VDR inh = blocks the human vitamin D receptor | P11473 | VDR-SRC2-3 peptide fluorescence polarization, 2 h | Potency, µM, inactives show max response, negative = inhibition, hits mostly inhibitors | actives 0.93% (n = 400,000) | AID 504847; active means well fitted inhibition curve with a large enough effect; inconclusive means small, poorly fitted or top-dose-only effect, or another doubt; inactive means no such curve, though single readings can be large or run the other way; further: series mostly up to about 120 µM
# Target sequence (P11473 whole entry, looked up): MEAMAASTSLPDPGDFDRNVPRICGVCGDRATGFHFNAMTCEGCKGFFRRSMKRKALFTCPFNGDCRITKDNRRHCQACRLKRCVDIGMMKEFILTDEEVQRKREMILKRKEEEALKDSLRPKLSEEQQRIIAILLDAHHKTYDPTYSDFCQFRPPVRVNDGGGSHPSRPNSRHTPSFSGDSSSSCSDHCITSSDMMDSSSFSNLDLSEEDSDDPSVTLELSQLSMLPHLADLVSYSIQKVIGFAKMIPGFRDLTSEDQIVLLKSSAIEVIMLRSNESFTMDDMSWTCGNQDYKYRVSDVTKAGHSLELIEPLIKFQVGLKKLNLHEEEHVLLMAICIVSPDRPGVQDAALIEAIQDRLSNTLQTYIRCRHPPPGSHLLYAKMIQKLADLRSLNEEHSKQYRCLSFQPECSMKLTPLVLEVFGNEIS
#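 Reagent solutions, kept cold and dark, are dispensed first; compounds are then pinned in at 23 nl, plates briefly spun, and incubated 2 h at ambient temperature. Inhibition of VDR–SRC2-3 peptide binding is read by fluorescence polarization.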
# An asterisk follows results filed as active; ? = inconclusive; & = joins results of further samples. On the % scale 0 is the no-effect control and ±100 the full control effect; potency means the concentration at half of the fitted maximal effect.
VDR inh | molecule
1% | COc1ccccc1CNC(=O)CC(c1ccc(OC)c(OC)c1)N1Cc2ccccc2C1=O (configuration not stated)
-17% | CN(C)CCN(Cc1cc2cc3c(cc2[nH]c1=O)OCCO3)C(=S)NCC1CCCO1 (configuration not stated)
2% | COc1ccc(CN2CCNC(=O)C2CC(=O)NCCSc2nccn2C)c(OC)c1 (configuration not stated)
-6% | O=C(Nc1cccc(F)c1)Nc1c[nH]c(=O)[nH]c1=O
8% | CCOC(=O)C1CCCN(S(=O)(=O)c2ccc(N3CCCCS3(=O)=O)cc2)C1 (configuration not stated)
2% | CCCOc1ccc(C(=O)CCC(=O)OCC(=O)N(CC)c2c(N)n(Cc3ccccc3)c(=O)[nH]c2=O)cc1
12% | COc1cccc(OCC(O)CN2CCN(CCO)CC2)c1 (configuration not stated)
7% | Cc1cccc(NC(=O)CN(C)S(=O)(=O)c2cccs2)c1

VDR inh | molecule
-18% | COc1cccc(CNC(=O)CCc2nnc3n(CC(C)C)c(=O)c4ccccc4n23)c1
-7% | CCCOc1ccc(Oc2nc(-c3ccncc3)nc3ccccc23)cc1
17% | CO/C([O-])=N/c1c[n+](-c2ccc(C)cc2)no1
22% | COC(=O)C1=C(C)NC(=O)NC1c1cc(Cl)ccc1OC (configuration not stated)
-15% | CCN1CCN(Cc2ccc(NC(=O)c3ccc(C)c(NC(=O)C[C@@H]4NC(=O)[C@H](Cc5ccccc5)NC4=O)c3)cc2C(F)(F)F)CC1
3% | CCOC(=O)c1c(NC(=O)Cc2cccs2)sc(C)c1C
-3% | CN(C)c1ccc(C(CNC(=O)c2ccccc2C(F)(F)F)N2CCOCC2)cc1 (configuration not stated)
-11% | COc1ccc(S(=O)(=O)c2c(O)cc(C)c(NS(=O)(=O)c3ccccc3)c2C)cc1

VDR inh | molecule
? | Cc1ccc(S(=O)(=O)NCC2COc3ccccc3O2)cc1 (configuration not stated)
11% | CCCNC(=O)Cn1cnc2sc(C(=O)N3CCCC(C(=O)OCC)C3)c(C)c2c1=O (configuration not stated)
-2% | CCOc1ccc(C2=Nc3ccc(Br)cc3C(c3ccc(N4CCOCC4)cc3)=NN2)cc1
6% | Cc1ccc(N2C(=O)[C@@H]3CSC(c4ccc(C(F)(F)F)cc4)N3C2=O)cc1 (some centres not stated)
-3% | Brc1ccc(-c2nn3c(Cc4ccccc4)nnc3s2)o1
3% | CN(CC1COCCO1)C(=O)c1cc(COc2c(F)cccc2F)on1 (configuration not stated)
-9% | O=c1ccccn1CCOc1ccc(Cl)cc1
-4% | COc1ccccc1OCCOc1ccc(/C=C2\C(=N)N3N=C(C)SC3=NC2=O)cc1

# Part of the list above, with each value named:
> O=c1ccccn1CCOc1ccc(Cl)cc1
- VDR inh: -9%
> Brc1ccc(-c2nn3c(Cc4ccccc4)nnc3s2)o1
- VDR inh: -3%

# Going on with the list.
VDR inh | molecule
18% | Nc1nnc(SCC(=O)NCCOc2ccccc2)s1
-6% | O=C(Nc1ccc(C(=O)OC[C@@H]2CCCN3CCCC[C@H]23)cc1)c1cccc(Br)c1
-7% | O=C(CNC(=O)c1cccs1)c1ccc(Br)cc1
-12% | Cc1c(C(=O)O)sc2nc3n(c(=O)c12)CCCCC3
15% | COc1ccc(C(=O)Nc2ccc(NC(=O)c3cccs3)cn2)cc1
9% | COCCNC(=O)C(NC(=O)C1CCC(C)CC1)C(C)C (configuration not stated)
3% | Cc1cc(-c2ccccc2)nc2cc(C(=O)N(Cc3ccccc3)Cc3ccccc3)nn12
11% | Cn1c(N)c(N2CCCCC2)c(=O)n(CC(=O)Nc2ccc(Cl)c(Cl)c2)c1=O

VDR inh | molecule
-9% | COc1ccc(OC)c(S(=O)(=O)N2CCC(C(=O)N3CCCCCC3)CC2)c1
-6% | CCCCN(C)C(=O)c1nc2ccccn2c1CN1CCN(C/C=C/c2ccccc2)CC1
5% | CCCCc1nn2c(=O)cc(COC(=O)c3ccc(NC(=O)CCc4ccccc4)cc3)nc2s1
? | CC(C)(C)C(=O)OCc1nc(-c2ccc3c(c2)OCCO3)cs1
-9% | CCCN1C2CCCC1CC(NC(=S)Nc1cc(C)ccc1C)C2 (configuration not stated)
8% | Cc1cc(C)cc(NC(=O)c2cccn2-c2ncc(C(F)(F)F)cc2Cl)c1
18% | O=S(=O)(NCc1cccnc1)c1ccc(Cl)s1
19% | N#Cc1cc(Nc2c(N)nc[nH]c2=O)c([N+](=O)[O-])cc1C#N

VDR inh | molecule
-12% | COc1ccc2cc3cc(C(=O)Nc4cc(OC)c(OC)c(OC)c4)oc3nc2c1
-14% | COc1ccc(C(CCN(Cc2ccc(OC)c(OC)c2)C(C)=O)c2ccccc2)cc1 (configuration not stated)
13% | COC(=O)c1onc(-c2c(C)cc(C)cc2C)c1C(=O)OC
-19% | COc1cccc(-c2nc3ccc([N+](=O)[O-])cc3o2)c1
0% | Cc1cc2occ(CC(=O)N(CCC(C)C)c3c(N)n(Cc4ccccc4)c(=O)[nH]c3=O)c2cc1C
29% | CSc1sc(C)cc1C1C(C#N)=C(N)N(c2cccnc2)C2=C1C(=O)CCC2 (configuration not stated)
0% | Cc1ccc(S(=O)(=O)N2CCN(Cc3nc4ccccc4[nH]3)CC2)cc1C
-24% | COC(=O)Nc1ccc2c(c1)N(C(=O)CCN1CCN3CCCC3C1)c1ccccc1S2 (configuration not stated)

VDR inh | molecule
-6% | CCC(=O)N1CCc2cc(Br)cc(S(=O)(=O)NCc3ccc(Cl)cc3)c21
2% | COCC(C)NC(=O)c1ccc(Cl)c(Cl)c1 (configuration not stated)
16% | Cc1ccc(S(=O)(=O)NCCNC(=O)CN2CCCC2)cc1
2% | CN(C(=S)Nc1ccc(SC(F)F)cc1)C(c1ccccc1)c1ccccc1
5% | O=C(NC(Cc1c[nH]c2ccccc12)C(=O)N/N=C/c1cccc2ccccc12)c1cccs1 (configuration not stated)
11% | O=C(CCS(=O)(=O)Cc1ccccc1)Nc1ccc2c(c1)OCCO2
-14% | C/C(=C\c1ccco1)CN1CCN(Cc2ccc(C)o2)C(CCO)C1 (configuration not stated)
? | O=C(CC12CC3CC(C1)CC(CC(=O)NC1=NCCS1)(C3)C2)NC1=NCCS1

VDR inh | molecule
-1% | Cc1cccc(NC(=S)NN2CCOCC2)c1C
-22% | Cc1ccc(C2C3CN(C(C)C)CC=C3C(C#N)=C(N)C2(C#N)C#N)cc1 (configuration not stated)
-21% | C=CC(C)(C)c1[nH]cnc1/C=C1\NC(=O)C(C(C)C)NC1=O (configuration not stated)
-12% | Cc1ccc(-n2nnc3c(=O)n(CC(=O)NCc4ccco4)cnc32)cc1
-3% | COc1ccc(N2CC(C(=O)N(CC(C)C)c3c(N)n(Cc4ccccc4)c(=O)[nH]c3=O)CC2=O)c(OC)c1 (configuration not stated)
13% | COc1ccc2c(c1)OC(O)(C(F)F)CC2=O (configuration not stated)
11% | COc1ccccc1CNC(=O)CCC1N=C2c3ccccc3N=C(SCC(=O)NCCc3ccc(OC)c(OC)c3)N2C1=O (configuration not stated)
11% | O=S(=O)(Nc1cccc(-n2cnnn2)c1)c1ccc(Cl)cc1

VDR inh | molecule
-6% | Nc1ccc2nc(CCc3ccccc3)[nH]c2c1
21% | O=C(O)c1ccccc1/C=N/NC(=S)NCc1ccccc1
3% | Oc1cccc(-c2nc3ccc4ccccc4c3c3c2CCC3)c1
-12%&0% | OC(COCC1COc2ccccc2O1)CN1CCN(c2ccccn2)CC1 (configuration not stated)
-16% | CCOC(=O)C1=C(N)n2c(s/c(=C\c3cccnc3)c2=O)=C(C(=O)OC)C1c1cccnc1 (configuration not stated)
-5% | O=C(CSc1ccc2ccccc2c1)Nc1ncccn1
-3% | CC1CC(C)(C)NC(=S)N1CCCC(=O)Nc1ccc(F)c(F)c1 (configuration not stated)
20% | CC(C)C[C@H](NC(=O)[C@@H](Cc1c[nH]c2ccccc12)NC(=O)[C@@H](Cc1ccc(O)cc1)NC(=O)[C@@H](CO)NC(=O)[C@@H](Cc1c[nH]c2ccccc12)NC(=O)C(Cc1cnc[nH]1)NC(=O)C1CCC(=O)N1)C(=O)N[C@@H](CCCN=C(N)N)C(=O)N1CCC[C@@H]1C(=O)NCC(N)=O (some centres not stated)

VDR inh | molecule
11% | Cc1ccc(C(=O)NCC(=O)Nc2ccc(S(=O)(=O)Nc3cc(C)nc(C)n3)cc2)cc1
-10% | Cn1nccc1NC(=O)Nc1cccc([N+](=O)[O-])c1
0% | Cc1csc2nc(COC(=O)c3cccc(NC(=O)c4cccc(Cl)c4)c3)cc(=O)n12
7% | COc1ccc(Cn2nnc3c(C)n[nH]c(=O)c32)cc1
-1% | O=C(NCCc1ccc(Cl)cc1)C1CCN(S(=O)(=O)N2CCCC2)CC1
11% | O=C(CN1CCOCC1)N1c2ccccc2Sc2ccccc21
-12% | COc1cc2c(cc1OC)C(C(=O)NCCN(C)C)C(c1cccs1)N(C)C2=O (configuration not stated)
8% | COCCNC(=O)Cn1ncc2c(C)n(Cc3ccc(C)cc3)c(C)c2c1=O

VDR inh | molecule
12%&-4% | O=C(Nc1ccccc1C(F)(F)F)N1CCN(c2ccc3nnc(-c4ccc(F)cc4)n3n2)CC1
-17% | CC(C)(C)c1ccc(C(=O)Nc2nnc(SCC(=O)NCC3CCCO3)s2)cc1 (configuration not stated)
-2% | COc1cccc(-n2c(C)n[nH]c2=O)c1
1% | COc1ccc(OCC(=O)N/N=C(/C)Cc2ccccc2)cc1
-4% | CC(OC(=O)c1ccc2ccccc2n1)C(=O)Nc1ccc(N2CCOCC2)cc1 (configuration not stated)
-13% | CCCCCOc1ccc(/C=c2\sc3nc(=O)c(-c4ccccc4)nn3c2=O)cc1OC
-3% | CCOC(=O)N1CCC(NC(=O)c2cc(C(=O)Nc3ccc(OC)c(OC)c3)ccc2CO)CC1
-15% | COc1ccc(CCC(=O)OCC(=O)Nc2sccc2C(N)=O)cc1

VDR inh | molecule
5% | CCC(=O)OC1C(N(C)C)CC(C)O[C@H]1O[C@H]1[C@H](C)[C@@H](O[C@H]2CC(OC)[C@@H](O)C(C)O2)[C@H](C)C(=O)O[C@@H](CC)[C@](C)(O)[C@@H](O)[C@H](C)C(=O)[C@@H](C)C[C@]1(C)O (some centres not stated)
-4% | CCOc1ccc(-c2cn3c(n2)sc2cc(C(=O)N4CCCC(C)C4)ccc23)cc1 (configuration not stated)
-2% | Cc1ccc(C2C3=C(CCCC3=O)Nc3nc(SCC(=O)NCc4ccco4)[nH]c(=O)c32)cc1 (configuration not stated)
6% | O=C(Nc1ccccc1C(=O)N1CCOCC1)C1CCC(=O)N1C1CCCC1 (configuration not stated)
-10% | CCc1ccc(NC(=S)N(CCCN2CCOCC2)Cc2ccccn2)cc1
-15% | COc1cccc(-c2ncc3ccccc3c2COC(=O)N2CCOCC2)c1
-12% | CC(=O)c1cccc(Nc2nc(-c3ccccc3)nc3ccccc23)c1
9% | Cc1cccc(-n2c(SCC(=O)N3CCN(c4ccccn4)CC3)nnc2N2CCOCC2)c1

VDR inh | molecule
-4% | CC(=O)CSc1nnc(-c2ccc3c(c2)OCO3)o1
7% | CCc1ccccc1Nc1nc(N)nc(CSc2nnnn2C)n1
? | COc1ccc2cc(C(=O)N3CCC(Cc4ccccc4)CC3)[nH]c2c1
13% | Cc1ccccc1OCc1nnc(SCC(=O)NC2CCCCC2)o1
-3% | Cc1ccc(/C=N/n2c(=O)c(C(C)(C)C)nn3cnnc23)cc1
4% | CCCN1CCN(CCNC(=O)Nc2cc(OC)cc(OC)c2)CC1
24% | CCCCn1c(=O)[nH]c2c(oc3ccccc32)c1=O
-10% | O=C(COC(=O)Cc1cccc(C(F)(F)F)c1)Nc1cccc2ccccc12

VDR inh | molecule
-7% | CN(C)c1ccc(CN(C(=O)COc2ccccc2)C2CCS(=O)(=O)C2)cc1 (configuration not stated)
-12% | CC(C)CCn1c(Cl)nc2c1c(=O)n(C)c(=O)n2C
-22% | COc1ccc(S(=O)(=O)N2CCCCC2)cc1NC(=O)c1ccc(OC)c(OC)c1
-5% | O=C(NCc1cccnc1)c1ccccc1[N+](=O)[O-]
-8% | Cc1cccc(NC(=O)c2nc[nH]c2C(=O)NCCCNC(=O)c2[nH]cnc2C(=O)Nc2cccc(C)c2)c1
-9% | CCOC(=O)c1c(NC(=O)c2cccs2)sc2c1CCCC2
1% | O=C(NCC1CCCO1)c1ccc2c(c1)S(=O)(=O)c1ccccc1C2=O (configuration not stated)
-15% | CCOc1ccccc1/C=C/c1cc(C(=O)O)c2ccccc2n1
2% | CN1CCN(C(=O)CN(c2cc(C(F)(F)F)ccc2Cl)S(C)(=O)=O)CC1

# Structural class, the entries above containing fluorine (twelve)
VDR inh | molecule
-6% | O=C(Nc1cccc(F)c1)Nc1c[nH]c(=O)[nH]c1=O
-15% | CCN1CCN(Cc2ccc(NC(=O)c3ccc(C)c(NC(=O)C[C@@H]4NC(=O)[C@H](Cc5ccccc5)NC4=O)c3)cc2C(F)(F)F)CC1
-3% | CN(C)c1ccc(C(CNC(=O)c2ccccc2C(F)(F)F)N2CCOCC2)cc1 (configuration not stated)
6% | Cc1ccc(N2C(=O)[C@@H]3CSC(c4ccc(C(F)(F)F)cc4)N3C2=O)cc1 (some centres not stated)
3% | CN(CC1COCCO1)C(=O)c1cc(COc2c(F)cccc2F)on1 (configuration not stated)
8% | Cc1cc(C)cc(NC(=O)c2cccn2-c2ncc(C(F)(F)F)cc2Cl)c1
2% | CN(C(=S)Nc1ccc(SC(F)F)cc1)C(c1ccccc1)c1ccccc1
13% | COc1ccc2c(c1)OC(O)(C(F)F)CC2=O (configuration not stated)
-3% | CC1CC(C)(C)NC(=S)N1CCCC(=O)Nc1ccc(F)c(F)c1 (configuration not stated)
12%&-4% | O=C(Nc1ccccc1C(F)(F)F)N1CCN(c2ccc3nnc(-c4ccc(F)cc4)n3n2)CC1
-10% | O=C(COC(=O)Cc1cccc(C(F)(F)F)c1)Nc1cccc2ccccc12
2% | CN1CCN(C(=O)CN(c2cc(C(F)(F)F)ccc2Cl)S(C)(=O)=O)CC1

# An excerpt; rates above refer to the full screens.
